# Source: PubChem (ICCB-Longwood Screening Facility, Harvard Medical School)
# S aureus helic: blocks Staphylococcus aureus DNA helicase. purified S. aureus helicase, fluorescence unwinding assay; about half of the hits fall short of the stated cut. inhibition, %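 (tested at about 80 µM)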. 120,000 compounds, 0.05% hits. AID 485395;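 active = both duplicates at 50% or more, or one of them with a favoured structure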;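 note: 0% = mean of negative control wells and 100% = mean of positive control wells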
# MgrA DNA FP: S. aureus MgrA-DNA binding modulation; fluorescence polarization; inhibition, %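 (about 10 µg/mL by stock and volumes)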; 84,000 compounds, 0.13% hits; AID 602314;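 active = above 50% in either of two replicates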;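 note: 0% = protein plus DNA without compound and 100% = DNA alone without protein; higher means less MgrA bound to DNA so lower polarization; one replicate is shown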
# * marks the source's active call; other numbers are inactive results; . = no result given. This is a subset; the hit share may differ from the screen's.
S aureus helic	MgrA DNA FP	Compound
2	.	Cn1cnnc1SC(C(=O)c1ccccc1)c1ccccc1 (configuration not stated)
-4	-1.2	CCc1ccc(NC(=O)N2CCc3cc(S(=O)(=O)N4CCC(C)CC4)ccc32)cc1
.	-1.1	N#Cc1cccc(N2C(=O)CCC2=O)c1
10	.	COC(=O)CN1C(=O)c2cccc3cccc1c23
.	1.1	Cc1ccsc1CNC(=O)c1ccc(Cl)cc1
12	.	O=C(NCC1CCCO1)c1ccc(-n2ccc3ccccc32)s1 (configuration not stated)
.	0.4	C=CCn1c(=S)sc2c(Sc3nc4ccccc4[nH]3)ncnc21
11	-1.6	COc1ccc(-c2nc(SCC(=O)NC3CCCC3)c(-c3ccc(C)cc3)[nH]2)cc1
0	.	Cc1ccccc1/C=N/NC(N)=S
-1	.	Cc1csc(SCC(=O)NCc2cccs2)n1
-5	0.3	COc1ccc(C2C(C(=O)NCc3ccc(F)cc3)CCC(=O)N2c2ccc3c(c2)OCO3)cc1 (configuration not stated)
6	1.1	Cc1cc(C)c2c(n1)sc1c(=O)n(Cc3ccccc3Cl)nnc12
.	7.0	O=c1[nH]c(-c2ccccn2)nc2c1CSCC2
-7	.	O=C(OCC(=O)N1CCN(C(=O)COC(=O)c2ccncc2)CC1)c1ccncc1
6	.	COC(=O)c1cc(-c2ccccc2)n(CC(=O)O)c1C

# Later entries:
S aureus helic	MgrA DNA FP	Compound
23	.	Cc1cccc(C)c1NC(=S)N1CCCCC1CO (configuration not stated)
9	.	CCN1C(c2ccccc2)C(C)C(=O)C(C)C1c1ccccc1 (configuration not stated)
11	.	CC(C)C(=O)c1cccs1
.	-1.0	Cc1noc(C)c1-c1nc(CSc2ccccc2)no1
.	1.6	CC1(C)C2CCC1(C)C(NS(=O)(=O)c1ccc(Cl)cc1)C2 (configuration not stated)
-1	.	O=C(NC(=S)NCC1CCCCC1)c1ccco1
21	.	O=c1[nH]nc(Sc2ncccc2C(F)(F)F)n1C1CCCCC1
.	-1.6	COc1cc(NC(=O)C(c2ccccc2)C2CCCC2)cc(C(F)(F)F)c1 (configuration not stated)
2	-0.7	O=C(NCc1cccs1)c1ccc2c(c1)N(Cc1ccccc1)C(=O)c1ccccc1S2
-3	-1.3	Cn1c(CNC(=O)c2ccc(Cl)cc2)nnc1SCC(=O)N1CCc2ccccc2C1
.	2.4	Cc1ccc(/C(C#N)=C/c2cccs2)cc1
6	.	O=C(COC(=O)C1CC2CCCC(C1)C2=O)c1ccc(CC(=O)N2CCOCC2)s1 (configuration not stated)
.	0.7	O=S(=O)(Cc1ccc(Cl)cc1)N1CCN(c2ncccn2)CC1
-6	.	C[C@H](NS(=O)(=O)c1cccc2nsnc12)C(=O)Nc1cccc(F)c1
16	2.6	CC(C)(C)c1oc2cc(Br)c(O)cc2c1C(=O)O

# Part of the list above, as labelled records.
COc1ccc(-c2nc(SCC(=O)NC3CCCC3)c(-c3ccc(C)cc3)[nH]2)cc1
- S aureus helic: 11
- MgrA DNA FP: -1.6

Cc1ccccc1/C=N/NC(N)=S
- S aureus helic: 0
- MgrA DNA FP: .

Cc1csc(SCC(=O)NCc2cccs2)n1
- S aureus helic: -1
- MgrA DNA FP: .

COc1ccc(C2C(C(=O)NCc3ccc(F)cc3)CCC(=O)N2c2ccc3c(c2)OCO3)cc1 (configuration not stated)
- S aureus helic: -5
- MgrA DNA FP: 0.3

# Following part.
S aureus helic	MgrA DNA FP	Compound
5	.	COc1ccc(CCn2c(=O)[nH]c3cc(C(=O)NCc4ccco4)ccc3c2=O)cc1OC
.	-0.2	COC(=O)c1cc(C)nc(Sc2ccccc2NC(=O)c2ccccc2)n1
-19	.	CCNc1ccc(S(=O)(=O)C(F)(F)F)cc1NC(=O)CC#N
9	-3.9	CCOC(=O)N1CC=C2C(C#N)=C(N)C(C#N)(C#N)C(CC)C2C1 (configuration not stated)
-10	2.7	Cc1nn(-c2ccccc2)c2sc(C(=O)N/N=C/c3ccccc3)cc12
10	-0.3	Fc1cccc(F)c1/C=N/n1cnnc1
12	-0.4	COc1ccccc1CNC(=O)C(C)n1cccc1C(=O)c1ccccc1 (configuration not stated)
2	.	O/N=C/c1cn(CC(O)COc2cccc3cccnc23)c2ccccc12 (configuration not stated)
-10	.	c1csc(NC2=NCCC2)n1
8	.	O=C(Nc1ccc(F)cc1)C(NCc1ccco1)c1ccccc1 (configuration not stated)
-4	.	CCn1c(C)c(CCC(=O)NCc2ccccn2)c(=O)n2nc(-c3ccccc3OC)cc12
.	-0.7	COc1ccc(COC(=O)C2=C(C)NC3=C(C(=O)CC(C)(C)C3)C2c2cc(Cl)c(O)c(OC)c2)cc1 (configuration not stated)
13	.	Nc1nc(SCC(=O)Nc2ccccc2C(=O)Nc2ccccc2)n[nH]1
.	-0.8	Clc1ccc(N=Cc2ccn(-c3ccccc3)n2)cc1
11	0.9	S=C(Nc1ccccc1)N1N=C(c2cccs2)CC1c1cccs1 (configuration not stated)

# Going on with the list.
S aureus helic	MgrA DNA FP	Compound
-11	-0.1	Cn1cnnc1SCC(=O)c1ccc(C2CCCCC2)cc1
.	-0.2	Cc1nc(-c2ccccn2)nc(N(C)c2ccccc2)c1Cl
1	6.1	O=C(O)c1ccc2c3c(ncnc13)-c1ccccc1C2=O
.	-2.1	COC(=O)c1ccccc1S(=O)(=O)NC1C2(C)CCC(C2)C1(C)C (configuration not stated)
4	0.2	COc1ccc(CCNC(=O)c2cc(-c3ccccc3O)no2)cc1OC
14	-8.4	Cc1ccc(S(=O)(=O)c2ccccc2)cc1S
8	2.9	CC(C)NC(=O)Cn1cc(C(=O)C(C)C)c2ccccc21
-87	.	O=C1/C(=C/c2c(N3CCCCC3)nc3ccccn3c2=O)SC(=S)N1Cc1ccco1
6	.	CCn1c(CSc2nc3ccccc3s2)nnc1SCC(=O)OC(C)(C)C
15	.	CN(C)CCCNc1nc(-c2ccccc2)c2c(c1C#N)CC(C)(C)OC2
-8	.	Cc1cc(C)n(-c2ccc(C(=O)OCC(=O)C(C)(C)C)cc2)n1
.	-12	CC(=O)OCC(=O)c1cc(Cl)sc1Cl
11	-1.6	Cc1ccc(C(=O)NC(=O)CSc2nnnn2-c2ccccc2)cc1
16	.	Cc1ccc(C)c(NS(=O)(=O)c2ccc3c(c2)c(=O)n(C)c(=O)n3C)c1
2	.	Nc1ncc(N=Nc2cc(C(=O)O)ccc2Cl)s1

# Going on with the list.
S aureus helic	MgrA DNA FP	Compound
14	-1.0	CS(=O)c1nc(-c2cccs2)cc(-c2ccccc2)c1C#N (configuration not stated)
2	.	O=C1C=CC(Br)=C/C1=C\N(O)c1ccccc1
.	-1.7	COC(=O)c1sccc1-c1ccc(-c2ccn(S(=O)(=O)c3ccc(Cl)cc3)n2)o1
-12	.	CC1CN(S(=O)(=O)c2ccc(Cl)cc2)CCN1S(=O)(=O)c1ccc(Cl)cc1 (configuration not stated)
1	.	CCCCCn1c(SCC(=O)OCC)nc2cc(C(=O)N3CCC(C(N)=O)CC3)ccc2c1=O
11	.	O=C1NC2=C(C(=O)c3ccccc32)C(c2ccccc2)S1 (configuration not stated)
-7	.	O=c1c2ccccc2c(-c2n[nH]c(=S)o2)nn1Cc1ccccc1
.	0.8	COc1ccc(/C=C2/SC(=Nc3ccccc3)NC2=O)c(OC)c1OC
4	-3.2	O=C(CCc1ccccc1)Nc1ccc(NC(=O)c2ccco2)nc1
.	3.2	C=CCn1cc(/C=c2\sc3n(c2=O)C(c2ccc4c(c2)OCO4)C(C(=O)OCC)=C(C)N=3)c2ccccc21 (configuration not stated)
.	6.8	CCCc1[nH]c(=O)cc2cc(OC)c(OC)cc12
-7	1.0	CC(CCc1ccccc1)NCc1ccc(C(=O)O)s1 (configuration not stated)
11	.	Cn1c(N=Nc2c(O)[nH]c(=O)[nH]c2=O)nc2c1c(=O)n(Cc1ccc(Cl)cc1)c(=O)n2C
20	.	CC(C)(C)C(=O)COC(=O)c1ccc(C#N)cc1
-13	.	Cc1cccc(C(=O)Nc2nc(-c3ccc(F)cc3)cs2)c1

# Copied from the results shown, seven compounds:
S aureus helic	MgrA DNA FP	Compound
-1	.	Cc1csc(SCC(=O)NCc2cccs2)n1
-5	0.3	COc1ccc(C2C(C(=O)NCc3ccc(F)cc3)CCC(=O)N2c2ccc3c(c2)OCO3)cc1 (configuration not stated)
6	1.1	Cc1cc(C)c2c(n1)sc1c(=O)n(Cc3ccccc3Cl)nnc12
.	7.0	O=c1[nH]c(-c2ccccn2)nc2c1CSCC2
-7	.	O=C(OCC(=O)N1CCN(C(=O)COC(=O)c2ccncc2)CC1)c1ccncc1
6	.	COC(=O)c1cc(-c2ccccc2)n(CC(=O)O)c1C
23	.	Cc1cccc(C)c1NC(=S)N1CCCCC1CO (configuration not stated)

# (more compounds)
S aureus helic	MgrA DNA FP	Compound
26	1.1	Cc1cccc(OCOc2cccc(C)c2)c1
-3	-0.9	COC(=O)C1CCCN1S(=O)(=O)c1ccccc1N (configuration not stated)
.	-1.2	N=c1c2cnn(-c3ccccc3)c2ncn1/N=C/c1ccc(Cl)cc1
16	.	CN(C(=O)CN1C(=O)c2cc(Cl)c(Cl)cc2C1=O)C1CCS(=O)(=O)C1 (configuration not stated)
14	3.7	CC1CC(=O)N(Cc2ccc(F)cc2)c2ccccc2S1(=O)=O (configuration not stated)
7	.	N#Cc1cccc(S(=O)(=O)NC2CC2)c1
.	-6.8	N#Cc1ccccc1C(C#N)c1ccccc1 (configuration not stated)
-5	2.9	COc1ccc2[nH]c(=O)c(CN(Cc3ccc4c(c3)OCO4)Cc3nnnn3CCc3ccccc3)cc2c1
16	-2.6	OCCN(Cc1ccccc1)CC1CC2C=CC1C2 (configuration not stated)
4	3.1	COc1cccc(NC(=O)c2oc3ccccc3c2C)c1
17	3.6	CC(=O)Nc1ccc(NC(=O)C2CC(=O)N(Cc3ccccc3)C2)cc1 (configuration not stated)
8	.	CCCn1c(O)c(C=Nc2c(C)n(C)n(-c3ccccc3)c2=O)c(=O)[nH]c1=S
6	-1.4	Cc1ccc(-c2nn(CO)c(=S)o2)cc1
7	-0.8	C=C1N(c2ccc(Cl)cc2)C(=O)OC1(C)C
.	-0.9	CC(=O)O[C@]1(C(C)=O)CCC2C3C[C@H](C)C4=CC(=O)CC[C@]4(C)C3CC[C@@]21C (some centres not stated)

# The final five compounds of the part above open the next one:
S aureus helic	MgrA DNA FP	Compound
17	3.6	CC(=O)Nc1ccc(NC(=O)C2CC(=O)N(Cc3ccccc3)C2)cc1 (configuration not stated)
8	.	CCCn1c(O)c(C=Nc2c(C)n(C)n(-c3ccccc3)c2=O)c(=O)[nH]c1=S
6	-1.4	Cc1ccc(-c2nn(CO)c(=S)o2)cc1
7	-0.8	C=C1N(c2ccc(Cl)cc2)C(=O)OC1(C)C
.	-0.9	CC(=O)O[C@]1(C(C)=O)CCC2C3C[C@H](C)C4=CC(=O)CC[C@]4(C)C3CC[C@@]21C (some centres not stated)
3	-1.1	COC1OC2COC(c3ccccc3)OC2C(O)C1O (configuration not stated)
8	2.3	CCSC1=N/C(=C\c2ccc(C(C)C)cc2)C(=O)S1
3	.	O=C(Cn1c(=O)c2sccc2n(CC(=O)Nc2ccccc2)c1=O)NCCc1ccccc1
8	.	Cc1ccc(NC(=O)C/C(N)=N/O)cc1
-22	.	CC(=O)Nc1ccc(S(=O)(=O)N2CCSC2c2ccccc2)cc1 (configuration not stated)
11	.	O=C(Cc1nc(O)cs1)c1ccccc1
7	-0.8	C/C=C(\C)CN1CCN(Cc2ccccc2)CC1
1	-2.5	COc1cc(NC(=O)CCN2CCC(C)CC2)cc(OC)c1
17	3.2	COc1ccc(CNC(=O)c2ccc(C)c(C)c2)cc1
-17	.	O=C(NCCN1CCCCCC1)c1cnc2sc(N3CCOCC3)nn2c1=O
-4	-1.6	CC(NC(=O)C1CCCN1S(=O)(=O)c1ccccc1)c1ccccc1 (configuration not stated)
3	-1.9	O=C(CC1COc2ccccc2O1)NC1CCCCC1 (configuration not stated)
-12	.	C=C(C)Cn1c(C2CC(=O)N(c3cccc(SC)c3)C2)nc2ccccc21 (configuration not stated)
22	.	COc1ccc(-c2onc(C)c2-c2ccc3c(c2)OCCO3)c(O)c1
-14	.	CNC(=O)CSc1nc2ccc(C)cc2[nH]1

# (further entries)
S aureus helic	MgrA DNA FP	Compound
.	-3.4	O=C(NC(Cc1ccccc1)C(=O)O)c1ccc(C(=O)NC(Cc2ccccc2)C(=O)O)cc1 (configuration not stated)
-9	.	CN(Cc1ccccc1)S(=O)(=O)c1ccc2c(c1)OCC(C(=O)N1CCCC1)O2 (configuration not stated)
.	1.1	COc1ccc(C(C)=O)cc1N1C(=O)C2C3C=CC(O3)C2C1=O (configuration not stated)
-5	.	COc1ccc(CNC(=O)C(C)N2CCN(c3ccc(C(F)(F)F)cn3)CC2)cc1 (configuration not stated)
11	-0.9	COC(CNC(=O)c1cc2c(C)nc3ccccc3c2o1)OC
40	-1.0	CN(C)CCN=c1cc(-c2ccccc2)oc2ccc(Cl)cc12
5	0.8	N=C1S/C(=C\c2ccc(-c3ccccc3F)o2)C(=O)N1c1ccc2c(c1)OCO2
7	0.2	O=C(NCCN1CCCC1)c1cc(Sc2cccc(Cl)c2)nc2ccccc12
21	-0.8	CC(C)CNC(=S)Nc1ccccc1
18	.	COCCN1Cc2cccc(C(=O)Nc3cccnc3)c2C1=O
-7	.	CC(Nc1ccc2c(c1)OCCO2)C(=O)NC1CCCC1 (configuration not stated)
-7	.	O=c1cc(O)c2sc3nc(-c4ccncc4)ccc3c2[nH]1
7	2.0	O=C(OCC(=O)N1CCCCC1)c1sc2ccccc2c1Cl
-5	.	Cc1csc(SCC(=O)Nc2cc(C(C)(C)C)no2)n1
1	-2.5	N#CCC(=O)N1CCCCCC1
-8	.	COc1ccc(-c2cc(C(=O)NN)n(-c3ccccc3)n2)cc1
9	.	CN(C)S(=O)(=O)c1ccc(C(=O)NN2CC(=O)NC2=O)cc1
.	-3.5	N#CCC(=O)c1ccsc1
